# Bioassay records from PubChem.
# KCNQ2 enhance: potentiators of rat KCNQ2 potassium channel | O88943 | CHO-K1 KCNQ2, FluxOR thallium flux fluorescence; stronger effect = higher value | B-score at 10 µM | 0.54% of 310,000 active;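 active = fluorescence ratio B-score at least 3 SD of library B-scores, with initial fluorescence B-score within 3 SD, cut at about 5.3 in these data; same plate scores as AID 2156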;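 also: B-score of peak minus minimum over baseline fluorescence ratio after K+ and Tl+ stimulus; positive B-score means potentiation of KCNQ2 with more thallium influx and brighter signal; only the inactives scoring about 0 or higher are listed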
# Target sequence (O88943 whole entry, looked up): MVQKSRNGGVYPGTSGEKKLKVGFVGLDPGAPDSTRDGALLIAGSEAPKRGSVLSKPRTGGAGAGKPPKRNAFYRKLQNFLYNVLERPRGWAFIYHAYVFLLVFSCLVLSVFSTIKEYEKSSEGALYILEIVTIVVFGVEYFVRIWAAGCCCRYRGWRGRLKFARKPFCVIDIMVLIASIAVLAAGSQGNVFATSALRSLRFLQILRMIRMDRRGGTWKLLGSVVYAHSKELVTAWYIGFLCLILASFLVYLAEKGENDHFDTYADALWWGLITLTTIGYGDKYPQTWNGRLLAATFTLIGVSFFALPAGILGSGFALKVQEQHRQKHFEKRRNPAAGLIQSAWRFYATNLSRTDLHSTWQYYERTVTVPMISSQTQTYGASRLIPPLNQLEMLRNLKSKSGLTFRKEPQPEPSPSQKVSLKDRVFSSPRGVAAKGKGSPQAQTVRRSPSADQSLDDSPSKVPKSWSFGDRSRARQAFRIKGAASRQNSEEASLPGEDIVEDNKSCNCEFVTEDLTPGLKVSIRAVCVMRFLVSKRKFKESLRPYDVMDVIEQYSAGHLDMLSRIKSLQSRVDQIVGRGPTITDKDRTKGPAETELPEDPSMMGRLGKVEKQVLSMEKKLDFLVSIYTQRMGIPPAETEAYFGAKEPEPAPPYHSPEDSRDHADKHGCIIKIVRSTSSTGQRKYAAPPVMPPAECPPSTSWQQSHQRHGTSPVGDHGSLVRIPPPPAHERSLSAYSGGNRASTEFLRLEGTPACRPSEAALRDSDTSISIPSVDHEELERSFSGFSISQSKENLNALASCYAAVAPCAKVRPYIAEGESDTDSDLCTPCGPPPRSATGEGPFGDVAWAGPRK
# KCNQ2 enhance baseline: further read-out of KCNQ2 enhance, marked with its call; B-score; compound at 10 µM; measured here: initial fluorescence intensity artifact check;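 brightness before thallium and not channel activity; 0 = typical well and far values either way flag optical interference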
# * marks the source's active call; other numbers are inactive results. These rows are one share of the data; the hit share may differ from the screen's.
SMILES | KCNQ2 enhance | KCNQ2 enhance baseline
Cc1cnc(C(=O)N2CCCC(N3CCN(c4ccccc4C)CC3)C2)cn1 (stereo unspecified) | 1.21 | 0.02
Cn1c(C(=O)N2CCCCCC2)cc2c(=O)n(C)c3ccccc3c21 | 0.64 | 0.32
COc1ccc(S(=O)(=O)N2CCCc3ccccc32)cc1OC | 0.15 | 0.57
CN1c2ccccc2C(=O)NC1c1ccc(Cl)cc1 (stereo unspecified) | 2.33 | -2.56
Cc1n[nH]c(=O)c2c(NC(=O)CSc3nn(-c4ccc(F)cc4)c(=S)s3)oc(C)c12 | 0.65 | 1.15
COc1cc(/C=N/NC(=O)CNC(=O)/C=C/c2ccco2)cc(OC)c1OC | 0.46 | 0.24
Cn1c(COc2ccccc2)nnc1SCCC(=O)Nc1ccccc1 | 1.57 | 0.1
Cc1cc(/C=N/NC(=O)C(=O)NCc2ccccn2)c(C)n1-c1ccccc1 | 1.63 | -2.37
O=C(COC(=O)c1ccc([N+](=O)[O-])o1)Nc1nc2ccccc2s1 | 0.77 | -0.09
Cc1ccc(CNC(=O)c2ccc(N3CCC4(CC3)CC(c3ccccc3)=NO4)c(N)c2)cc1 | 1.19 | -0.56
COc1ccc(CCN2Cc3c(N)cccc3C2=O)cc1OC | 0.69 | 1.31
S=c1[nH]nc(-c2ccccn2)n1/N=C/c1cccs1 | 2.58 | 0
O=S(=O)(NCCc1ccccc1)c1ccc(Cl)nc1 | 0.07 | 2.5
COc1cccc(N2C(=O)CC(N3CCN(CCN=CC4=C(O)CC(C)(C)CC4=O)CC3)C2=O)c1 (stereo unspecified) | 2.45 | -0.81
Cc1ccc(C)c(NC(=O)c2cc(-c3cc(C)c(C)cc3O)n[nH]2)c1 | 0.29 | 0.84
O=C(NCC1CCCO1)C1CCN(C2CCN(Cc3cccs3)CC2)CC1 (stereo unspecified) | 0.15 | -0.25
O=C(Nc1cccc(Cl)c1Cl)c1ccc(-c2ccccc2)cc1 | 0.02 | 0.76
O=C(COC(=O)c1ccccc1NC(=O)c1ccco1)Nc1ncc(Cl)cc1Cl | 1.54 | 2.89
Cc1nonc1NC(=O)CSc1cn[nH]n1 | 0.65 | 2.89
CCn1c(CNC(=O)c2ccc(OC)cc2)nnc1SCC(=O)c1ccccc1 | 0.57 | -0.45
CCOC(=O)c1cc2sccc2n1CC(=O)N1CCCc2ccccc21 | 0.26 | 0.38
Cn1c(=O)n(C)c2cc(N3CCOCC3)c(NC(=O)c3cccc(Cl)c3)cc21 | 2.52 | -0.7
CC(=O)Nc1ccc(NC(=O)c2ccccc2C)cc1 | 1.13 | 0.42
COc1ccc(OC)c(CCNC(=O)CS(=O)(=O)Cc2nc(-c3ccccc3Cl)oc2C)c1 | 0.5 | -0.22
Cc1cc(C(=O)COC(=O)c2ccc3c(c2)NC(=O)CS3)c(C)n1CC1CCCO1 (stereo unspecified) | 0.03 | -1.55
COc1ccc(NS(=O)(=O)c2ccc(Br)cc2)cn1 | 1.48 | 0.97
CCCOc1ccc(C(=O)NNC(=S)NC(=O)c2ccco2)cc1 | 1.12 | 0.43
COC(=O)c1ccc(NN=Nc2ccc(C)cc2)cc1 | 0.01 | 0.53
Cc1cccc(NC(=O)CSCC(=O)NCc2ccco2)c1 | 0.25 | -0.72
Cc1nn(CC2CC2)c(=O)n1-c1ccc(Oc2ccccc2)cc1 | 4.46 | -0.27
COc1cccc(C(=O)COc2ccc3ccc(=O)oc3c2)c1 | 0.96 | 1.21
C=CCNc1nc(Nc2ccc(-c3nc4ccccc4o3)cc2)nc(N2CCOCC2)n1 | 1.05 | 0.63
Cc1nn(Cc2ccc(F)cc2)c(C)c1NC(=O)c1cc(-c2ccco2)on1 | 0.14 | 1
Cc1nnc(SCC(=O)NNC(=O)CC#N)[nH]c1=O | 0.1 | -0.09
CCOc1ccccc1NC(=O)C(C)CC (stereo unspecified) | 0.05 | -1.04
CCOc1ccccc1N(CC(=O)Nc1ccc(OC)cc1OC)S(=O)(=O)c1ccccc1 | 0.61 | 0.45
Cc1[nH]n(S(=O)(=O)c2ccccc2)c(=O)c1N=Nc1cccc(Cl)c1 | 0.01 | 0.38
Cc1cc(C)nc(NC(=S)NC(=O)c2ccccc2F)n1 | 0.03 | 0.13
COc1ccc(/C=N/NC(=O)c2ccc(CN3C(=O)c4cccc5cccc3c45)cc2)cc1O | 0.6 | -0.12
CC(C)c1ccc(/C=C/C(=O)Nc2ccc(CN3CCOCC3)cc2)cc1 | 1.16 | -0.9
CC12CCC(=O)N1C(C(=O)Nc1ccccc1F)CS2 (stereo unspecified) | 0.87 | -1.05
O=C(NC(=S)Nc1ccc2[nH]c(=O)[nH]c2c1)c1cc(Br)ccc1Cl | 0.46 | -0.18
CC1(C)CC(CCC(=O)Nc2ccccc2Cl)C(=O)O1 (stereo unspecified) | 1.22 | 0.46
CC1CCN(c2ccc(/C=N/n3nnnc3N)cc2[N+](=O)[O-])CC1 | 0.89 | -0.48
Cc1ccc(CN2CCN(Cc3cn[nH]c3C3CCCCC3)CC2CCO)cc1 (stereo unspecified) | 0.23 | 1.42
CCn1cc(CNC(=O)c2cc(COc3ccc(F)cc3F)on2)cn1 | 0.04 | -0.65
COc1ccc(C2=NN(C(=O)CSC3=NN4CCCC(=O)N=C4S3)C(c3cccc(OC)c3OC)C2)cc1 (stereo unspecified) | 0.01 | 0.49
CCSc1nnc(NC(=O)c2csc3c2CCC(C)C3)s1 (stereo unspecified) | 1.59 | 0.75
O=C1CCCC(O)=C1Sc1cc(Cl)c(Cl)cc1Cl | 0.59 | 0.65
COc1cc(O)c(NC(C)=O)c2nonc12 | 1.62 | -0.91

# Remaining list, next part:
SMILES | KCNQ2 enhance | KCNQ2 enhance baseline
CC(C)(C)C(=O)Nc1c2c(nn1-c1ccc(F)cc1)CSC2 | 0.03 | -0.66
CCOC(=O)C1(Cc2cccc(F)c2)CCN(C(=O)C2CCCO2)CC1 (stereo unspecified) | 0.12 | 1.2
O=C1CN(C(=O)c2ccccc2)C(c2ccccc2)c2cc(F)ccc2N1 (stereo unspecified) | 0.99 | -1.02
COc1ccc(N2C(=O)CN=C2Nc2nc(C)cc(C)n2)cc1OC | 0.84 | -0.93
COc1cccc(C(=O)Nc2ccc(NC(=O)C3CCCCC3C(=O)O)cc2)c1 (stereo unspecified) | 0.36 | 0.7
C=CCNc1sc(C(=O)C(C)(C)C)c(N)c1C#N | 0.36 | -2.3
Cn1c(N)c(C(=O)Nc2cccc(Cl)c2)c(=O)n(C)c1=O | 0.65 | 0.01
COc1ccc(/C=N/NC(=S)Nc2ccccc2)cc1COc1ccc(F)cc1F | 1.72 | -2.08
COc1ccc(-c2noc(CCCOc3ccccc3)n2)cc1OC | 0.39 | -1.64
CCOC(=O)CSc1ncnc2c1cnn2-c1ccc(C)cc1 | 1.13 | -0.95
CCOC(=O)c1c(NC(=O)C(C)N2CCN(C(=O)c3ccco3)CC2)sc2c1CCCC2 (stereo unspecified) | 3.54 | 3.14
N#C/C(=C/c1ccccc1)c1nn(CCO)c(N)c1C#N | 0.43 | -0.85
COc1cc(C2=NOC(C(=O)Nc3c(C)n(C)n(-c4ccccc4)c3=O)C2)cc(OC)c1OC (stereo unspecified) | 0.35 | -0.74
CCOC(=O)C1=C(C)Nc2nc(SCC)nn2C1c1ccc(OC)cc1 (stereo unspecified) | 1.67 | -1.54
O=c1c2c(nc3c(-c4ccccc4)c[nH]n13)CCCC2 | 0.16 | 0.13
CC(C)=CCN1CCN(Cc2cnc(C)s2)CC1CCO (stereo unspecified) | 0.19 | 1.04
CN(CC(=O)O/N=C(\N)c1ccccn1)S(=O)(=O)c1ccccc1 | 0.67 | -1.36

# Arranged by SMILES length (highest first): 18 of the compounds above.
SMILES | KCNQ2 enhance | KCNQ2 enhance baseline
COc1ccc(C2=NN(C(=O)CSC3=NN4CCCC(=O)N=C4S3)C(c3cccc(OC)c3OC)C2)cc1 (stereo unspecified) | 0.01 | 0.49
COc1cc(C2=NOC(C(=O)Nc3c(C)n(C)n(-c4ccccc4)c3=O)C2)cc(OC)c1OC (stereo unspecified) | 0.35 | -0.74
CCOC(=O)c1c(NC(=O)C(C)N2CCN(C(=O)c3ccco3)CC2)sc2c1CCCC2 (stereo unspecified) | 3.54 | 3.14
O=C(NC(=S)Nc1ccc2[nH]c(=O)[nH]c2c1)c1cc(Br)ccc1Cl | 0.46 | -0.18
COc1cccc(C(=O)Nc2ccc(NC(=O)C3CCCCC3C(=O)O)cc2)c1 (stereo unspecified) | 0.36 | 0.7
COc1ccc(/C=N/NC(=S)Nc2ccccc2)cc1COc1ccc(F)cc1F | 1.72 | -2.08
O=C1CN(C(=O)c2ccccc2)C(c2ccccc2)c2cc(F)ccc2N1 (stereo unspecified) | 0.99 | -1.02
CN(CC(=O)O/N=C(\N)c1ccccn1)S(=O)(=O)c1ccccc1 | 0.67 | -1.36
CCOC(=O)C1=C(C)Nc2nc(SCC)nn2C1c1ccc(OC)cc1 (stereo unspecified) | 1.67 | -1.54
Cn1c(N)c(C(=O)Nc2cccc(Cl)c2)c(=O)n(C)c1=O | 0.65 | 0.01
CC(C)(C)C(=O)Nc1c2c(nn1-c1ccc(F)cc1)CSC2 | 0.03 | -0.66
O=c1c2c(nc3c(-c4ccccc4)c[nH]n13)CCCC2 | 0.16 | 0.13
N#C/C(=C/c1ccccc1)c1nn(CCO)c(N)c1C#N | 0.43 | -0.85
CC1(C)CC(CCC(=O)Nc2ccccc2Cl)C(=O)O1 (stereo unspecified) | 1.22 | 0.46
CCSc1nnc(NC(=O)c2csc3c2CCC(C)C3)s1 (stereo unspecified) | 1.59 | 0.75
C=CCNc1sc(C(=O)C(C)(C)C)c(N)c1C#N | 0.36 | -2.3
CC(C)=CCN1CCN(Cc2cnc(C)s2)CC1CCO (stereo unspecified) | 0.19 | 1.04
COc1cc(O)c(NC(C)=O)c2nonc12 | 1.62 | -0.91
